High-throughput results (PubChem)
HCMV NEC inh – disrupts HCMV UL50-UL53 complex binding; 0.15% of 190,000 active; HTRF UL50-UL53 interaction, normalized percent inhibition; AID 1918969; inhibition, % (no concentration beside the values);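 active = both replicates at 50% or more, plus weaker picks with an unusually low signal ratio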;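 also: stock transfer was 100 nL into about 20 µL; 0% = negative control wells and 100% = wells with untagged competitor protein; inactives centre near -12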
GIV-Gai inh – blocks GIV peptide binding to rat Galpha-i3. 0.42% of 210,000 active. percent of control (FP), % (test concentration not listed). AID 1224905. Galpha-i3/FITC-GIV peptide fluorescence polarization, 90 min; active compounds read low; scaled: aluminum fluoride 0%, vehicle 100%. P08753;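 active = replicate mean at 85% of control or lower, very high polarization wells dropped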;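 also: lower values mean more displacement of the GIV peptide from Galpha-i3; wells of about 15 µL received 100 nL stock; the first replicate is given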
Target sequence (P08753 whole entry, looked up): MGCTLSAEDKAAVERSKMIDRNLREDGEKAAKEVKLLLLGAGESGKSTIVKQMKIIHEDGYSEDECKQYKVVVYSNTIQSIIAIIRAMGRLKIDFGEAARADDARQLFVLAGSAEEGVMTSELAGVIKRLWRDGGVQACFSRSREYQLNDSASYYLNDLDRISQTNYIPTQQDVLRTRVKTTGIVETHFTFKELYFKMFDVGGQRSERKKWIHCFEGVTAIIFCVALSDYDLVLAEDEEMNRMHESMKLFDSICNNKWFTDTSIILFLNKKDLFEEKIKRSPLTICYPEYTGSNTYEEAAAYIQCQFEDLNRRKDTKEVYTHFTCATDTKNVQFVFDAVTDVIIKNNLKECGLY
Sa growth inh – inhibitors of Staphylococcus aureus growth at 42 °C. 0.53% of 170,000 active. S. aureus RN4220 growth, OD600, 20 h; active compounds read low. relative growth, % (no concentration beside the values);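 active = growth at 42 °C up to 50% and 20 or more points under that at 30 °C, or under 10% at both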;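 also: 300 nL library stock went into each well; scaled to the means of positive and negative controls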
Sa growth inh second temp – recorded beside Sa growth inh, whose call it bears; relative growth, %; measured here: growth at 30 °C;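 optical density after 20 h as mean of two plates; 100% = untreated growth and lower means inhibition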
Starred values were filed as active, the others as inactive; / = not tested or not shown; & = joins results of further samples.

Each structure is followed by: HCMV NEC inh | GIV-Gai inh | Sa growth inh | Sa growth inh second temp
CCN1CCN(CCCNC(=O)c2nn(C)c3c2CCc2sccc2-3)CC1
 : 25 | 108 | / | /
O=C1CC(c2ccccc2)Cc2[nH]c(=O)c(-c3nc(-c4cccc(Cl)c4)cs3)cc21 (centres undefined)
 : -31 | 99 | 95 | 86
Nc1cc(Cl)ccc1N1CCCCC1
 : 1 | / | 92 | 105
Cc1ccc(CN2CCC(CNS(=O)(=O)c3ccc4c(c3)CCCC(=O)N4)C2)cc1 (centres undefined)
 : 8 | 107 | 103 | 103
CCOc1ccccc1NC(=O)Cn1c(=O)n(-c2ccc(CC(=O)NC(C)C)cc2)c(=O)c2ccccc21
 : -22 | 103 | / | /
O=C(O)CCC(=O)N1CCC(c2ccccc2)=N1
 : -14 | / | 90 | 98
COc1ccccc1-[n+]1c(C)cc(C)cc1C
 : -1 | / | 95 | 83
CCN(CC)C(=O)c1cnn(-c2ccc(F)cc2)c1-n1cccc1
 : / | 101 | 107 | 94
CCCc1nc(C)cc(N2CCCC2)n1
 : 10 | 101 | 104 | 99
CCCS(=O)(=O)c1nc2ccccc2n1Cc1cc(C)ccc1C
 : -28 | 103 | 78 | 73
COc1ccc(S(=O)(=O)NCCc2nnc3ccc(SCC(=O)Nc4ccc(C(F)(F)F)cc4)nn23)cc1
 : / | 110 | 99 | 82
OC(CCN1CCCCC1)(c1ccccc1)C1CC2C=CC1C2 (centres undefined)
 : -28&-10&-20 | 101 | 98 | 91
O=C(O)CSCC(=O)Nc1ccc(Oc2c(Cl)cccc2Cl)nc1
 : 30 | 100 | 96 | 87
COc1ccc(-n2c(=O)c3sc4ccccc4c3n(CC(=O)NCc3ccccc3)c2=O)cc1
 : -39 | 104 | 113 | 88
CC1=NN(C(=O)CCCc2ccccc2)C(O)(c2ccc(Br)cc2)C1 (centres undefined)
 : 2 | 105 | / | /
CCCN(Cc1cccs1)C(=O)Nc1ccc(Br)c(C)c1
 : -10 | 100 | 102 | 96
CCOC(=O)c1sc(NC(=O)c2nc(SC)ncc2Cl)c(C(=O)OCC)c1C
 : -15 | 96 | 98 | 79
COc1ccc(-c2[nH]nc3nc(-c4ccc(O)c(O)c4)cc(C(=O)O)c23)cc1
 : -47 | 101 | / | /
CCOC(=O)/C=C1\SC(C)C(=O)N1CC(=O)c1ccc(Br)cc1 (centres undefined)
 : -8 | / | 129 | 98
CC1=NOC(=O)/C1=C\c1ccc(O)c(O)c1
 : / | 106 | 88 | 64
O=C(CN1C(=O)COc2ccc(C(=O)N3CCCC3)cc21)NCCCN1CCCC1
 : -22 | 100 | / | /
CSc1nccc(-c2sc(-c3ccc(Cl)cc3)nc2C)n1
 : -5 | 103 | 119 | 67
Cc1sc2nc(-c3ccc(C(C)(C)C)cc3)oc(=O)c2c1C
 : -23 | 99 | / | /
CC(=O)Nc1c2c(nn1-c1ccc(C)cc1)CSC2
 : -38 | 98 | 101 | 76
CCOc1ccc(C2(CC(=O)Nc3ccccc3)C(=O)c3ccccc3C2=O)cc1OC
 : / | 102 | 106 | 86
O=C(CN1CC(=O)N2CCCCC2C1=O)Nc1ccc(C(=O)NCc2ccccc2)cc1 (centres undefined)
 : 3 | 102 | / | /
CCOc1ccccc1N1CC(c2nc3ccccc3n2CCOc2ccccc2)CC1=O (centres undefined)
 : 0 | 112 | 103 | 20
CCCNS(=O)(=O)c1ccc(OCC(=O)NCc2ccco2)cc1
 : 2 | 104 | 103 | 86
CCOc1ccc(-n2c(SCC(=O)N3CCCCC3)nc3c([nH]c4ccccc43)c2=O)cc1
 : / | 104 | 110 | 91
COc1ccccc1NS(=O)(=O)c1ccc(C(=O)N2CCN(c3ccccn3)CC2)cc1
 : -19 | / | 92 | 73
CCCCN(CC)S(=O)(=O)c1ccc(C(=O)N=c2sc(C(=O)OCC)c(C)n2C)cc1
 : -20 | 104 | 105 | 89
Cc1ccc(NC(=O)COc2ccc(Cl)cc2)cc1N(C)C
 : -3 | 106 | 98 | 67
C=CC[C@@H]1/C=C(\C)C[C@H](C)C[C@H](OC)[C@H]2O[C@@](O)(C(=O)C(=O)N3CCCC[C@H]3C(=O)O[C@H](/C(C)=C/[C@@H]3CC[C@@H](O)[C@H](OC)C3)[C@H](C)[C@@H](O)CC1=O)[C@H](C)C[C@@H]2OC
 : -25&5 | / | 96 | 94
Cc1ccc(-c2noc(Cn3nc(-c4ccccc4)ccc3=O)n2)cc1
 : 6 | 104 | / | /
O=c1oc2ccccc2n1CC1CCCN1S(=O)(=O)c1ccc(-n2cnnn2)cc1 (centres undefined)
 : -16&2 | 102&98 | 106 | 81
COc1ccc(-n2c(=O)c3c4c(sc3n(CC(=O)Nc3cc(C)[nH]n3)c2=O)CCCC4)c(OC)c1
 : / | 102 | 115 | 84
CCN=c1scc(-c2ccc3c(c2)NC(=O)CO3)n1N=C1CCCC1
 : 12 | / | 85 | 88
CN1N=C2c3ccccc3CCC2C1c1cccs1 (centres undefined)
 : -16 | 106 | 104 | 92
COc1ccc(CCNC(=O)C2CC(=O)N(CCc3ccccc3)C2)cc1OC (centres undefined)
 : / | 109 | 117 | 100
O=C(c1c(F)c(F)c(F)c(F)c1F)N(CCO)Cc1ccccc1
 : -6 | 105 | 120 | 93

Compounds shown so far that have an NH in an aromatic ring (four):
Each structure is followed by: HCMV NEC inh | GIV-Gai inh | Sa growth inh | Sa growth inh second temp
O=C1CC(c2ccccc2)Cc2[nH]c(=O)c(-c3nc(-c4cccc(Cl)c4)cs3)cc21 (centres undefined)
 : -31 | 99 | 95 | 86
COc1ccc(-c2[nH]nc3nc(-c4ccc(O)c(O)c4)cc(C(=O)O)c23)cc1
 : -47 | 101 | / | /
CCOc1ccc(-n2c(SCC(=O)N3CCCCC3)nc3c([nH]c4ccccc43)c2=O)cc1
 : / | 104 | 110 | 91
COc1ccc(-n2c(=O)c3c4c(sc3n(CC(=O)Nc3cc(C)[nH]n3)c2=O)CCCC4)c(OC)c1
 : / | 102 | 115 | 84

Reformatted field by field: entries from further up.
CCOc1ccc(-n2c(SCC(=O)N3CCCCC3)nc3c([nH]c4ccccc43)c2=O)cc1
  HCMV NEC inh = /
  GIV-Gai inh = 104
  Sa growth inh = 110
  Sa growth inh second temp = 91

COc1ccc(-n2c(=O)c3sc4ccccc4c3n(CC(=O)NCc3ccccc3)c2=O)cc1
  HCMV NEC inh = -39
  GIV-Gai inh = 104
  Sa growth inh = 113
  Sa growth inh second temp = 88

OC(CCN1CCCCC1)(c1ccccc1)C1CC2C=CC1C2 (centres undefined)
  HCMV NEC inh = -28&-10&-20
  GIV-Gai inh = 101
  Sa growth inh = 98
  Sa growth inh second temp = 91

In another format: results already given.
SMILES: CCCNS(=O)(=O)c1ccc(OCC(=O)NCc2ccco2)cc1
  HCMV NEC inh = 2 | GIV-Gai inh = 104 | Sa growth inh = 103 | Sa growth inh second temp = 86
SMILES: CCOc1ccc(-n2c(SCC(=O)N3CCCCC3)nc3c([nH]c4ccccc43)c2=O)cc1
  HCMV NEC inh = / | GIV-Gai inh = 104 | Sa growth inh = 110 | Sa growth inh second temp = 91

The list goes on.
Each structure is followed by: HCMV NEC inh | GIV-Gai inh | Sa growth inh | Sa growth inh second temp
CCOc1ccc(NC(=O)c2cc(S(=O)(=O)N3CCCCCC3)cn2C)cc1
 : / | 109 | 117 | 108
Cc1c(N2CCC(C(=O)NC3CC3)CC2)c(=O)n(C)c(=O)n1-c1ccccc1
 : -7 | 108 | / | /
Cc1noc(C)c1CSc1ccccc1C(=O)Nc1ccccc1N1CCCC1
 : -22 | / | 96 | 90
CN(C)CCNC(=O)C(=O)NCC(c1cccnc1)N1CCN(c2ccccc2)CC1 (centres undefined)
 : -12 | 105 | 89 | 86
O=C(NCC(=O)c1cccs1)c1ccc(CSc2ccccc2)o1
 : -36 | 104 | 107 | 82
CCOC(=O)c1ccc2nc(CCC(=O)O)c(=O)n(CC)c2c1
 : -40 | / | 104 | 87
CC(C)(C)c1ccc(C(=O)OCc2ccc3c(c2)OCO3)s1
 : -43 | 102 | 93 | 87
COC(=O)c1ccc(NC(=O)CNC(=O)C2CCCCC2)cc1
 : -15 | / | 116 | 87
CN(Cc1ccccc1)Cc1c(F)cccc1F
 : -13 | 102 | 100 | 94
COc1cc(CCC(=O)OCC(=O)N2CC(=O)Nc3ccccc32)cc(OC)c1OC
 : 11 | / | 89 | 91
O=C(NCCC(c1ccccc1)c1ccccc1)c1cccnc1Cl
 : 15 | / | 93 | 103
CN1CCC(=NN=C(c2ccccc2)c2ccccc2)CC1
 : -18 | / | 99 | 100
Cc1ccc(C(=O)N(C)CCC#N)cc1C
 : 14 | 107 | 105 | 101
CCOc1ccc(N(C)S(=O)(=O)c2ccc3[nH]cc(C(=O)NCc4ccccc4)c(=O)c3c2)cc1
 : / | 104 | 138 | 90
CNc1c(C(=O)c2ccc(F)cc2)sc(N)c1C#N
 : -48 | 108 | 95 | 97
O=C(Nc1ccc2c(c1)OCO2)N1CCN(Cc2nc3ccc(Cl)cc3o2)CC1
 : -14 | 107 | / | /
Cc1ccc(N2CCN(/N=C/C3=C(N4CCOCC4)C(=C\c4ccccc4)/CC3)CC2)cc1
 : 10 | / | 110 | 99
C=CCn1c(SCC(=O)NCc2ccco2)nc2sc(C)c(C)c2c1=O
 : -30 | 100 | / | /
CCn1c(=O)c(C(=O)Nc2ccccc2Cl)c(O)c2ccccc21
 : -29 | 106 | / | /
CCCC(CCC)C(=O)Nc1c2c(nc3c1CCC3)CCCC2
 : -26 | 99 | 82 | 85
OCC1OC(Nc2ccccn2)C(O)C(O)C1O (centres undefined)
 : -9 | / | 106 | 86
CSc1ncc2c(=O)n(C(C)C)ccc2n1
 : 5 | 109 | 108 | 100
c1ccc(-c2nnc(-c3cccnc3)o2)cc1
 : / | 103 | 109 | 77
CCc1ccc(C2=CC(c3cccc(Br)c3)C(C#N)C(=O)N2)cc1 (centres undefined)
 : -9 | / | 95 | 88
CC1CCc2onc(C(=O)Nc3cccnc3)c2C1 (centres undefined)
 : -1 | 100 | / | /
COc1ccccc1C(=O)Nn1cnc2ccccc2c1=O
 : -12 | 107 | 94 | 88
COc1ccc(Nc2oc(-c3ccc(COc4ccccc4)o3)nc2C#N)cc1
 : 3 | 105 | 94 | 83
Cc1cc(C)c(NC(=O)Cn2c(=O)n(-c3cccc(C(F)(F)F)c3)c(=O)c3c(C)c(C)sc32)c(C)c1
 : -7 | 100 | 104 | 89
O=C1CC(c2c[nH]c3ccccc23)C(=O)N1c1ccccc1 (centres undefined)
 : / | 106 | 98 | 78
CC1=NOC(=O)/C1=C/c1ccc(-c2ccccc2)o1
 : / | 106 | 71 | 74
O=C(NCc1noc2ccccc12)Nc1cccc(Cl)c1
 : -20 | 106 | / | /
CSc1cccc(NC(=O)C2CCN(S(=O)(=O)c3ccc4[nH]c5c(c4c3)CCCCC5)CC2)c1
 : / | 108 | 79 | 93
Cc1cc(NC(=O)Cn2c(COc3ccc4ccccc4c3)nc3ccccc32)no1
 : -22 | / | 76 | 93
CCOc1ccc(NC(=O)N(C)CCc2c(C)nn(CC)c2C)cc1
 : -16 | 104 | / | /
Cc1sc(-n2cccc2)c(C(=O)NC2CCCCCC2)c1C
 : -8 | / | 98 | 97
N/C(=N\O)c1ccccn1
 : -7 | 103 | 104 | 96
CCc1ccc(S(=O)(=O)c2nnn3c2nc(NCc2ccccc2)c2cc(Cl)ccc23)cc1
 : -13 | 106 | 103 | 80
COc1ccc2oc(-c3cccc(NC(=O)c4cc([N+](=O)[O-])ccc4N4CCOCC4)c3)nc2c1
 : -27 | 109 | 94 | 64
CC(C)CCn1c(/C=C/c2ccccc2)nc2ccccc21
 : -26 | 103 | 77 | 54
O=C(COC(=O)c1ccc2c(=O)n3c(nc2c1)CCCCC3)c1ccc(S(=O)(=O)N2CCCCC2)cc1
 : -7 | / | 103 | 93
COc1ccc(-n2nc3cc(C)c(NC(=O)c4ccc(C)cc4C)cc3n2)cc1Cl
 : 0 | 104 | 116 | 96
CCOC(=O)c1c(C=O)oc2c(C)cc(OC(=O)c3cccc(Br)c3)c(Br)c12
 : -10 | 106 | / | /
CCOC(=O)N1CCN(C(=O)C2CC(=O)N(c3ccccc3)C2)CC1 (centres undefined)
 : -6 | 102 | 101 | 102
CCOC(=O)c1cc(S(=O)(=O)N(C)CC(=O)N2CCN(C3CCCCC3)CC2)cn1C
 : -19 | 103 | / | /
Cc1ccc(Oc2ccccc2NC(=O)CN2CSCC2=O)cc1
 : -21 | / | 86 | 98
Cc1ccc2oc(C(=O)Nc3c(C(=O)Nc4ccccc4)oc4ccccc34)cc(=O)c2c1
 : -24 | 104 | 105 | 88
